Screening data from PubChem BioAssay.
GLA inh pH 4.5 – blocks human alpha-galactosidase A at pH 4.5 | purified enzyme, 4-MU-alpha-Gal fluorescence, pH 4.5 | activity change, negative = inhibition, % at 105 µM | 230,000 tested, under 10 active | AID 1467; inconclusive = small, poorly fitted or top-dose-only inhibition, or a rising curve; inactive = flat fitted curve, though single readings scatter; no compound was filed as active;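 further: 0% = full activity with enzyme and -100% = basal without enzyme; dose as in the result columns while the protocol names 77 µM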
Rango complex inh – prevents formation of the Rango-importin beta complex; Rango CFP/YFP FRET sensor + importin beta, 45 min; Potency, µM (series often up to 92.2 µM), without a hit: at the highest dose inhibition of complex formation; hit rate 0.031% among 340,000; active = rising FRET ratio curve, often small or poorly fitted; inconclusive = mostly compound fluorescence or quenching in the first reads; inactive = flat curves in all reads;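 further: potency means the concentration at half of the fitted maximal effect; 0% = DMSO wells and 100% = buffer wells lacking importin beta; nearly all actives have a fitted effect of over 15% in size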
Target sequence (Q14974 whole entry, looked up): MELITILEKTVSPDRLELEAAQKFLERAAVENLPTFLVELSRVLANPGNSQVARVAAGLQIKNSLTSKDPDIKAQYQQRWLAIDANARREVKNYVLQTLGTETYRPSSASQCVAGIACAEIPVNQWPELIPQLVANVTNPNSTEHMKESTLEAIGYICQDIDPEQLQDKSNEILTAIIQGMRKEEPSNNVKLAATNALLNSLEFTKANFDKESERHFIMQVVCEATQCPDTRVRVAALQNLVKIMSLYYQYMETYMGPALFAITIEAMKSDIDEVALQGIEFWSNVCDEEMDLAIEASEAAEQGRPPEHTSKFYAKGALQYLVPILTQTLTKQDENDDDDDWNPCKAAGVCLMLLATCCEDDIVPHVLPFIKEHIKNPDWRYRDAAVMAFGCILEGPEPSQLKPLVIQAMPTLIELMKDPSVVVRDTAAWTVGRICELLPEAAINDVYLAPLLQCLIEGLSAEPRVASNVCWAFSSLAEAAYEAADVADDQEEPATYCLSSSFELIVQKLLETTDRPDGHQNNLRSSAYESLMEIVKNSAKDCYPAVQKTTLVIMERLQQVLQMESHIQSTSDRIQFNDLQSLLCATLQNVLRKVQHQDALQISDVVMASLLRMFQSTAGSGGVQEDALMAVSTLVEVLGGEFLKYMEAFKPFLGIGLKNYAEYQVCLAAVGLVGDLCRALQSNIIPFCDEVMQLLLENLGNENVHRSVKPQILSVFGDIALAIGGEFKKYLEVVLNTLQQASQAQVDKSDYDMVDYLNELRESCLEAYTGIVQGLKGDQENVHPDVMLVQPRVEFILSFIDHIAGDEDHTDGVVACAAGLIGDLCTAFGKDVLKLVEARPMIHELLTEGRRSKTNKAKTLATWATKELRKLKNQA
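FRET biosensor (snurportin 1 IBB flanked by EYFP and cerulean), 50 nM, with compound 5 min, then 0.125 microM importin beta in PBS, 1 mM DTT, 0.02% Tween-20, 0.1% BSA. CFP/YFP ratio read after 45 min at room temperature; pre-read flags interference.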
Rango release inh – inhibitors of RanGTP-induced Rango-importin beta complex dissociation; O95149+P62826; Biochemical FRET Rango-importin beta, RanGTP-induced dissociation; Potency, µM (doses to about 46.1 µM), for the others: at the highest dose activity change, negative = inhibition; hit rate 0.071% among 340,000; AID 540253; active means falling FRET ratio curve, often poorly fitted, with flat reads before Ran was added; inconclusive means other falling curves, or compound fluorescence or quenching; inactive means flat or rising ratio curve;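 further: potency means the concentration at half of the fitted maximal effect; % of control where 0% means no effect; nearly all actives have a fitted effect of over 45% in size; -100% = wells without RanGTP and RCC1; the record marks most hits as doubtful in a second field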
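Compounds preincubate 5 min with complex of recombinant Rango and importin beta in PBS with 1 mM DTT. Ran (0.6 uM) loaded with 2 mM GTP plus 0.2 uM RCC1 starts dissociation; FRET is recorded 45 min later.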
miR-21 FLuc – raises the signal of a miR-21 reporter; HeLa miR-21 FLuc reporter, luciferase, 48 h; Potency, µM (series often up to 38.3 µM), inactives show at the top dose reporter change, positive = more light; 340,000 tested, under 10 active; active = well fitted rising curve with a large enough effect; inconclusive = small, poorly fitted or top-dose-only effect; inactive = no such curve, though single readings can be large or run the other way;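 further: % of control where 0% means no effect; miR-21 action dims this reporter so a rising signal means less miR-21 action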
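HeLa miR-21-FLuc reporter line, endogenous miR-21; 2000 cells/well in DMEM/10% FBS; compound titration up to ~40uM final, 48 h, 37 degree Celsius; luciferase detection reagent, 15 min lysis, CCD luminescence.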
* marks the source's active call; other numbers are inactive results; ? = inconclusive; · = not tested or not shown; & = joins results of further samples.

SMILES | GLA inh pH 4.5 | Rango complex inh | Rango release inh | miR-21 FLuc
CC(C)c1cc(C(=O)N/N=C/C(Br)=C/c2ccccc2)n[nH]1 | · | ? | -29.0% | ?
Nc1nc2n(c1C(=O)c1ccccc1)CCC2 | 9.6 | 2.2% | 10.1% | -3.9%
O=C(CNC(=O)c1ccccc1Br)N/N=C/c1ccco1 | · | 1.0% | 1.0% | -0.6%
O=C(COC(=O)c1cc2ccccc2oc1=O)Nc1cccc(Br)c1 | · | 3.5% | -0.5% | ·
O=C(c1ccc(Oc2cc(Cl)cc(Cl)c2)o1)N1CCCCC1 | -21.1 | 0.3% | -19.3% | -10.6%
O=C(COC(=O)c1ccccn1)NCc1ccccc1 | 3.2 | 2.3% | 0.0% | 0.0%
CC(C)Cn1nc(C(=O)Nc2cccc(C(=O)NC3CC3)c2)c2ccccc2c1=O | · | -3.1% | 1.5% | ·
CCNC(=O)NC(=O)CSc1ccc(S(=O)(=O)N(C)C2CCCCC2)cn1 | · | 0.8% | 9.9% | ·
Cc1nc(-c2ccccc2)sc1C1(C)CC(c2cccc([N+](=O)[O-])c2)=NO1 (stereo not given) | -8.0 | -1.7% | 13.3% | -20.7%
CNC(=O)C1CC(=O)N(c2ccc(OCC(=O)Nc3ccccc3)cc2)C1 (stereo not given) | · | -2.4% | 1.4% | ·
COc1ccccc1/C=C/C(=O)OCC(=O)N1CCN(S(=O)(=O)c2ccc(C)cc2C)CC1 | · | -1.2% | 5.7% | ·
CCCOc1ccc(C2CC(=O)NC2=O)cc1 (stereo not given) | -8.1 | -0.7% | 7.9% | -2.8%
Clc1ccc(OCc2nc(-c3ccc(Br)o3)no2)cc1 | 2.2 | -2.7% | 18.8% | -15.1%
CC1(C)CC(=O)C/C(=N/NC(=O)CCCOc2ccc(Cl)cc2Cl)C1 | -2.6 | 0.3% | -2.8% | -10.4%
Cc1c(CC(=O)Nc2ccc(Cl)cc2)sc2ccc(Cl)cc12 | -1.0 | -2.5% | -0.1% | 2.7%
Cn1cc(C(=O)N/N=C/C(Br)=C\c2ccccc2)ccc1=O | -14.8 | 1.6% | -6.8% | 4.5%
c1ccc(CN2CCC(Nc3nc(-c4ccccc4)nc4ccccc34)CC2)cc1 | -5.0 | 2.4% | -27.8% | ?
CCc1cccc2c(C(=O)COC(=O)c3nccnc3N)c[nH]c12 | · | -3.2% | -15.3% | ·
COc1cc(Br)cc(/C=N/c2ncn[nH]2)c1O | -9.4 | ? | ? | 0.9%
O=C(O)c1ccccc1Cc1nc2cc(Cl)ccc2c(=O)[nH]1 | -2.8 | -3.2% | ? | 1.8%
COc1ccc(Cc2nnc(SCC(=O)N3CCN(c4ccccc4)CC3)o2)cc1 | 1.1 | -0.1% | 0.8% | 2.0%
CC1(C)Cc2c(C#N)c(OCC(=O)c3ccc(Cl)cc3)nc(-c3ccoc3)c2CO1 | 7.4 | 1.0% | 8.0% | 0.4%
Cc1ccc(C)c(NC2=NCC(=O)N2c2ccc3c(c2)OCCO3)c1 | 3.7 | -1.0% | 33.6% | -32.9%
CCCn1c(N)c(C(=O)CSc2nnc3n2CCCCC3)c(=O)[nH]c1=O | · | 2.3% | -2.3% | ·
CCOc1ccc(NC(=O)Nc2cc(C(=O)O)ccc2N2CC3CC(C2)c2cccc(=O)n2C3)cc1 (stereo not given) | · | 3.5% | -3.1% | 0.5%
COCCn1c(SCc2nc3ccccc3s2)nc2ccccc21 | -7.4 | 2.8% | -8.4% | -61.7%
Cc1ccc(-n2c(=O)cc(N3CC(C)CC(C)C3)[nH]c2=O)cc1 (stereo not given) | -16.5 | 2.2% | 6.3% | 0.9%
CCO/C([O-])=N/c1c[n+](N2CCOCC2)no1 | 3.7&-2.6&7.5 | -0.1%&-6.0% | -17.2%&4.2% | -9.7%
O=C(CCl)NNc1nc(-c2ccccc2)c2cc(Cl)ccc2n1 | · | -1.9% | 14.6% | 1.0%
O=C(c1cc(COc2ccc(F)cc2Cl)on1)N1C[C@H]2CC[C@H]1C2 | · | 1.2% | 3.8% | -56.2%
COc1ccc(NC(=O)C2CCC(C(C)(C)C)CC2)cc1S(=O)(=O)N1CCOCC1 (stereo not given) | · | -1.6% | 3.4% | ·
O=C(CCS(=O)(=O)c1ccc(Br)cc1)N1CCN(c2ccc(F)cc2)CC1 | · | -0.5% | 10.3% | 3.3%
CCOC(=O)N1CCN(C(=O)CN2C(=O)c3ccccc3S2(=O)=O)CC1 | · | 3.8% | 0.3% | -1.0%
COc1ccc(Cl)cc1NC(=O)C1(c2cccs2)CCOCC1 | 6.5 | 6.7% | -1.5% | 7.9%
Cc1cc(C)cc(-c2nnc(SCC(=O)c3ccc4c(c3)OCCO4)o2)c1 | -4.5 | -5.9% | 0.6% | -1.0%
CCn1c(SCC(=O)N/N=C(\C)c2ccco2)nnc1-c1ccccc1 | 1.9 | 0.6% | 21.4% | 2.3%

Record cards, as listed above:
CCn1c(SCC(=O)N/N=C(\C)c2ccco2)nnc1-c1ccccc1 as listed: GLA inh pH 4.5 = 1.9; Rango complex inh = 0.6%; Rango release inh = 21.4%; miR-21 FLuc = 2.3%
COCCn1c(SCc2nc3ccccc3s2)nc2ccccc21 as listed: GLA inh pH 4.5 = -7.4; Rango complex inh = 2.8%; Rango release inh = -8.4%; miR-21 FLuc = -61.7%
CCOc1ccc(NC(=O)Nc2cc(C(=O)O)ccc2N2CC3CC(C2)c2cccc(=O)n2C3)cc1 (stereo not given) as listed: GLA inh pH 4.5 = ·; Rango complex inh = 3.5%; Rango release inh = -3.1%; miR-21 FLuc = 0.5%

Additional entries
SMILES | GLA inh pH 4.5 | Rango complex inh | Rango release inh | miR-21 FLuc
Cc1ccc(NC(=O)c2ccc(N/N=C/c3cccc(O)c3)c([N+](=O)[O-])c2)cc1 | -1.4 | -2.0% | 9.4% | -5.8%
COc1ccc(CN2CCCC(C(=O)Nc3cccc(-n4cnnn4)c3)C2)c(C)c1C (stereo not given) | · | -0.1% | 25.3% | 10.6%
O=S(=O)(Nc1nc(-c2ccccc2)cs1)c1cc(Cl)ccc1Cl | · | -1.3% | -0.2% | -1.2%
Cc1c(NC(=O)c2ccccc2F)c(=O)n(-c2ccccc2)n1C | 3.2 | -0.5% | -1.7% | -0.7%
Cc1csc(NC(=O)CCSCCc2ccccn2)n1 | 3.2 | -3.4% | -0.5% | -2.9%
O=[N+]([O-])c1cccc(S(=O)(=O)NCCOc2cccc3cccnc23)c1 | · | 3.0% | 5.6% | -1.0%
O=S(=O)(c1ccc(S(=O)(=O)N2CCCC3(CCCCC3)C2)cc1)N1CCCCC1 | -0.7 | -2.5% | 0.8% | -0.4%
C1=C(CCNC2=NCCCCC2)CCCC1 | -11.7 | -3.4% | -11.4% | -2.0%
CCN(CC)C(=O)c1cn(C)c2ccc(S(=O)(=O)N(CC)CC)cc2c1=O | -8.6 | 0.0% | -15.5% | -2.2%
COc1ccc2[nH]c(C(=O)O)c(NS(=O)(=O)c3ccc(C)c(C)c3)c2c1 | · | 4.2% | 11.3% | -0.8%
O=C(CCc1nnc2ccc(NCCCN3CCCC3=O)nn12)NCc1ccccc1Cl | · | 0.0% | -11.1% | -4.1%
COc1ccc(-c2cc(=O)[nH]c3ccccc23)cc1 | · | -1.2% | 8.8% | ·
Cc1cccc(N2CCN(CC(O)COc3ccccc3Cl)CC2)c1 (stereo not given) | -5.8 | -2.5% | 30.2% | 2.4%
O=C(c1cnn2cccnc12)N1CCN(c2ccccc2)CC1 | 0.4 | -1.7% | 3.9% | -28.6%
O=C(Cn1nc(Cl)nc1Cl)c1cc2ccccc2oc1=O | -7.0 | ? | -19.1% | 0.2%
CCOC(=O)c1c(C)oc(NC(=O)CCl)c1C(=O)OCC | 7.4 | 0.9% | 13.5% | 4.0%
CC(C)(C)c1ccc(C(=O)N2CCCC2c2cccs2)cc1 (stereo not given) | · | 0.2% | -0.9% | -5.8%
CCC(CC(C)(C)O)C(=O)NNC(=S)Nc1ccccc1 (stereo not given) | 5.4 | 0.8% | -3.7% | -11.1%
CC1C(=O)N2CCCc3cc(NC(=O)c4ccccc4Br)cc1c32 (stereo not given) | · | 2.4% | 0.3% | ·
CC(/C=N/NC(=O)c1c(Br)cnn1C)=C\c1ccccc1 | -5.2 | ? | 14.2% | -49.4%
COc1ccc(NC(=O)CC(=O)Nc2ccc(OC)cc2)cc1 | · | 1.2% | 0.8% | ·
COc1ccc(CNn2c(-c3cccc(C)c3)nc3ccccc3c2=O)cc1OC | -10.9 | ? | -11.4% | -0.3%
CCC(=O)OCC(=O)Nc1ccc2c(c1)OCO2 | -7.3 | -0.1% | 6.1% | -15.9%
O=C(NC(=S)Nc1ccccc1Br)C1CCCCC1 | · | 0.3% | -13.9% | ·
Cc1nn(-c2ccccc2)c(Cl)c1C(=O)N1CCN(c2ncnc3c2cnn3-c2ccccc2)CC1 | -8.1 | 0.6% | 15.5% | 11.6%
O=C(NCCN1CCOCC1)C(=O)NCC1OCCCN1S(=O)(=O)c1ccc(F)cc1 (stereo not given) | · | 0.5% | -17.7% | 0.0%
COc1cc(C(=O)OCC(=O)Nc2cccc(S(=O)(=O)N3CCCC3)c2)ccc1OCC(C)C | · | -1.9% | -11.6% | ·
O=C(NCc1ccccn1)c1ccc(NS(=O)(=O)c2cccc(Cl)c2)cc1 | · | 7.7% | 14.7% | -10.5%
Cc1ccccc1NC(=O)COC(=O)c1ccccc1SCC(=O)N1CCCC1 | · | -0.1% | 2.1% | -10.9%
CC(=O)Oc1ccc(/C=N/NS(=O)(=O)c2ccc(C)cc2)c(OC(C)=O)c1 | · | 0.4% | -21.8% | -5.1%
O=C(C(=O)N1CCCc2ccccc21)c1cn(CC(=O)N2CCOCC2)c2ccccc12 | -1.4 | 1.5% | -7.7% | 1.3%
CC(=O)NNC(=O)c1sc(=S)n2c1[nH]c(=O)c1sccc12 | 3.7 | ? | ? | -1.4%
O=C1c2ccccc2NC(c2ccccc2F)N1NS(=O)(=O)c1ccccc1 (stereo not given) | · | -0.3% | 7.8% | 5.4%
CC1CN(Cc2nc3c(c(=O)[nH]c(=O)n3C)n2CC(N)=O)CC(C)O1 (stereo not given) | -6.0 | 1.6% | -12.1% | -2.8%
CN(C=[N+](C)C)c1cccc2c1C(=O)c1ccccc1C2=O | 9.0 | 0.7% | -14.3% | -17.6%
CCC(C(=O)NC(C)(C)C)N(C(=O)Cn1nnc(-c2cccs2)n1)c1cnc2ccccc2c1 (stereo not given) | -6.4 | ? | -22.4% | -3.8%
O=S(=O)(c1ccccc1)c1cnc(-c2cccnc2)nc1-c1ccc(Cl)c(Cl)c1 | 0.4 | -3.3% | -0.6% | -2.4%
COc1ccc(C/C(C)=N/NC(=S)Nc2ccccc2F)cc1 | 5.5 | -5.0% | 4.0% | -59.8%
CN(Cc1ccccc1Br)C(=O)CN1C(=O)NC2(CCCCCC2)C1=O | · | 3.5% | -11.9% | ·
CCNC(=O)c1c(O)c2c([nH]c1=O)CCCC2 | 4.7 | 7.2% | 20.5% | 6.1%
CCCCN1CC[C@H]2C=CC[C@@H](C(=O)Nc3ccc(Cl)cc3Cl)[C@H]2C1=O | · | -2.2% | 4.4% | ·
O=[N+]([O-])c1ccc(O)c(/C=N/Nc2ccccc2[N+](=O)[O-])c1 | · | 3.9% | 30.3% | -21.4%
COc1ccc(CN(C)C(=O)c2cc(S(=O)(=O)NCc3ccccc3)ccc2C)c(OC)c1 | · | 3.3% | -10.5% | ·
Cc1ccc(C(CC(=O)O)C2CCOC(C)(C)C2)cc1 (stereo not given) | 5.3 | -2.4% | -15.2% | -3.4%
Cc1ccc(CNc2nc(-c3cccnc3)nc3ccccc23)cc1 | · | 4.6% | 22.5% | 7.5%
CC(C)c1nnc(N2C(=O)c3oc4ccccc4c(=O)c3C2c2ccco2)s1 (stereo not given) | -0.3 | -5.0% | 1.8% | -6.3%
Cc1cn(CC(=O)NCCc2c[nH]c3ccccc23)c(=O)[nH]c1=O | · | -0.2% | -17.0% | ·

Some of the compounds tested, so the mix of outcomes need not match the whole.
